D2 PAM – positive allosteric modulators of human D2 dopamine receptor. P14416. DiscoveRx D2 beta-arrestin cells, luminescence, 90 min; 100% = 57 uM dopamine signal. potentiation, % (test concentration not listed). 360,000 compounds, 0.23% hits; active = potentiation of 50% or more; inconclusive = 30% to 50%; inactive = 30% or less;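 further: compound concentration not given in the record; tested on top of an EC20 dose of dopamine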
Target sequence (P14416 whole entry, looked up): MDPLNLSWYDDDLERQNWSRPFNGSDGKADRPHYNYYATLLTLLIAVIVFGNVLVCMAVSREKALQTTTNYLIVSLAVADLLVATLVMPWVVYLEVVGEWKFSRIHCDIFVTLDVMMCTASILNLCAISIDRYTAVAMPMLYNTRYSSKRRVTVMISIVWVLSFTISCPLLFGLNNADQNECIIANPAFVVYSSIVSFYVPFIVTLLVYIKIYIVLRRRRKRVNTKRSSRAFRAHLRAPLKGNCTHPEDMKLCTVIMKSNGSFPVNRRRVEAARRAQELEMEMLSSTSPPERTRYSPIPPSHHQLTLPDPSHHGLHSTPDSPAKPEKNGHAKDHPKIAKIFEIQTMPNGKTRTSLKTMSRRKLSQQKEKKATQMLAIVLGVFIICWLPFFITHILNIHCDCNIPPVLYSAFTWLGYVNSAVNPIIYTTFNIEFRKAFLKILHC
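PathHunter D2 cells, attached overnight at 37 deg C, received compound in DMSO plus dopamine at EC20 (50 nM final) for 90 min at 37 deg C. Beta-arrestin recruitment was read as luminescence after 1 h with detection reagent at ambient temperature.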
Six1-Eya2 inh – inhibitors of human Six1/Eya2 interaction; AlphaScreen GST-Six1/His-Eya2 binding, biochemical; stronger effect = lower value; control for the full effect not named in the record; activity change, % (concentration not given with the values); Q15475+O00167; 360,000 compounds, 0.56% hits; in the data active = activity change below about -65%; inconclusive = about -30% to -65%; inactive = above about -30%; further: on the % scale 0 is the no-effect control and ±100 the full control effect
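Homogeneous AlphaScreen proximity assay pairing GST-Six1 with His-tagged Eya2 (added as 5X mix: 250 nM and 500 nM) in 50 mM Tris pH 8.0, 300 mM NaCl, 1 mM TCEP. Glutathione donor and nickel acceptor beads; 1 h, 37 °C, dark.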
PINK1 modulator – PINK1 expression modulation; PINK1 immunofluorescence, high-content cytometry, 24 h; Potency, µM (top dose mostly 76.6 µM), for the others: at the top dose activation (PINK1 increase), usual class: activators; 410,000 compounds, 0.2% hits; active = well fitted activation curve with a large enough effect; inconclusive = small, poorly fitted or top-dose-only effect; inactive = flat fitted curve, though single readings scatter; cell line not stated here;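 further: potency means the concentration at half of the fitted maximal effect; % of control where 0% means no effect; nearly all actives have a fitted effect of over 65% in size; a mitochondrial uncoupler was the plate control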
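Compound titrations (5 concentrations, 24 h) on a stable cell line; DMSO and CCCP controls. Endpoint: fixed-cell PINK1 immunofluorescence with mitochondrial, cell and nuclear markers, scanned by microplate cytometer.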
TRPML1 ag – agonists of human TRPML1 channel | 410,000 compounds, 0.12% hits | activation, % (concentration not given with the values) | TRPML1-expressing cells, Ca2+ dye fluorescence, FDSS; host cell line not named in the record; reference of the full effect not given here | Q9GZU1 | AID 624414; in the data active = activation above about 50%; inconclusive = about 30% to 50%; inactive = below about 30%; further: 0% is about no effect; the text of the record puts the active cut at 80%
Target sequence (Q9GZU1 whole entry, looked up): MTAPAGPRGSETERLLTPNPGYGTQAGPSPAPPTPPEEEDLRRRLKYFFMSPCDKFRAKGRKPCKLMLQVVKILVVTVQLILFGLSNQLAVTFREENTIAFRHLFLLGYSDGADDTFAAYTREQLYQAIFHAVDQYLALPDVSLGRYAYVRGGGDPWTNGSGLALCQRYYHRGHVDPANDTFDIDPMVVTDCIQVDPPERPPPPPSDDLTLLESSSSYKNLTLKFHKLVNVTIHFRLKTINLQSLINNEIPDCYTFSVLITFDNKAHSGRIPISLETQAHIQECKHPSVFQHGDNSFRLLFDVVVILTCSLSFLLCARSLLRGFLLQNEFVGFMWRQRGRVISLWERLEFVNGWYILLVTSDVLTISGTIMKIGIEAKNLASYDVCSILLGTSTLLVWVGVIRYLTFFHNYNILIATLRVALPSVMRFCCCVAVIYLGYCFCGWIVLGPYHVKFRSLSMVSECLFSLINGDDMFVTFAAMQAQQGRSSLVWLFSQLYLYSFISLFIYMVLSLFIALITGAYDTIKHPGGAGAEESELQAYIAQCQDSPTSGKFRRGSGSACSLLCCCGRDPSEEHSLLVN
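Tet-induced TRPML1-DL cells, 1,500 per well, cultured overnight, were loaded with a no-wash Ca2+ dye for 45–90 min. Calcium fluorescence was recorded on the FDSS for 110 s after compound addition, before the EC80 agonist (4 uM 54-4) was added.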
TRPML1 inh – inhibitors of human TRPML1 channel | Q9GZU1 | TRPML1-inducible cells, Ca2+ dye fluorescence, FDSS; stronger effect = lower value; inhibition of EC80 agonist-evoked calcium signal | activity change, negative = inhibition, % (no concentration beside the values) | 390,000 compounds, 0.02% hits | AID 624415; in the data active means activity change below about -50%; inconclusive means about -30% to -50%; inactive means above about -30%;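 further: stimulus is agonist 54-4 at its EC80 concentration; on the % scale 0 is the no-effect control and ±100 the full control effect; compound concentration not given in the record; the text of the record puts the active cut at -80%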
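Tet-induced TRPML1-DL cells loaded with Ca8 no-wash calcium dye were read kinetically on FDSS. Compound addition was followed by EC80 agonist 54-4 (4 uM final); inhibition was read over 110 s.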
D2 ag – agonists of human D2 dopamine receptor (beta-arrestin); P14416; DiscoveRx PathHunter D2 beta-arrestin, luminescence, 90 min; 100% = 57 uM dopamine signal; activation, % (test concentration not listed); 360,000 compounds, 0.084% hits; AID 624465; in the data active = activation above about 40%; inconclusive = about 15% to 40%; inactive = below about 15%; further: compound concentration not given in the record; the text of the record calls up to 30% inactive
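Agonist mode: compounds alone added to overnight-plated D2 PathHunter cells for 90 min at 37 C, with 57 uM final dopamine (EC100) defining full response. Beta-arrestin recruitment detected by chemiluminescent reagent, read after 1 h at ambient temperature.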
The depositor's hits bear a star; ? = inconclusive; · = not tested or not shown; [ ] = remark or other dose. Rows are unselected, and some 1% of all compounds hit somewhere here.

SMILES | D2 PAM | Six1-Eya2 inh | PINK1 modulator | TRPML1 ag | TRPML1 inh | D2 ag
C/C(Cl)=C/Cn1c(NCCN(C)C)nc2c1c(=O)n(C)c(=O)n2C | -11 | -1 | -0.9% | 0.4 | 3 | -4.2
COc1cccc(/C=N/NC(=O)CCc2c(C)n[nH]c2C)c1 | -9 | -2 | -1.7% | 0.1 | 7 | 0.6
COc1ccccc1-n1cc(-c2ccc([N+](=O)[O-])cc2)[nH]c1=S | 0 | -9 | 5.6% | 1.6 | -19 | 5.2
O=C(O)c1cc(N/N=C/c2ccc(-c3ccc(F)cc3)o2)ccc1Cl | 12 | -10 | -0.8% | -0.6 | 42 | 7.5
CC(C)c1cc(-c2cc(C(=O)NCc3ccccc3)on2)nc(NC2CCCC2)n1 | -7 | -3 | 3.8% | 2.6 | -1 | -4.7
Cc1ccccc1OCC(=O)N1CCC(c2nc3ccccc3s2)CC1 | · | · | 0.6% | 0.6 | 6 | ·
COC(=O)CCCC1=CC2=CC(=O)C(C)(OC(=O)c3cccs3)C(=O)C2=CN1CCc1ccccn1 (configuration not stated) | 10 | -4 | -1.3% | 0.4 | -4 | 4.0
CC(=O)N1CCN(C(=O)c2cccc(S(=O)(=O)Nc3ccc(C)cc3)c2)CC1 | -5 | -2 | -0.1% | -0.8 | 5 | -2.1
Oc1c(Br)cccc1/C=N/c1ncn[nH]1 | -10 | 1 | 0.5% | 0.5 | -6 | 6.3
O=C(O)C1CCN(S(=O)(=O)c2cccnc2)CC1 | -8 | 3 | 0.9% | 0.1 | -20 | 0.9
CCc1ccccc1NC(=O)CN(C)S(=O)(=O)c1ccc2c(c1)c(=O)n(C)c(=O)n2C | -4 | -11 | 8.5% | -0.7 | 7 | -7.2
COC(CNC(=O)C1CCCN1C(=O)OCc1ccccc1)OC (configuration not stated) | -1 | 0 | -0.4% | 0.1 | -2 | -3.5
COc1cc(C(=O)Nc2nc3ccccc3[nH]2)cc(OC)c1OC | -5 | -1 | 5.1%[38.3 µM] | 0.6 | 8 | -2.3
Cc1noc(C)c1CSc1nnc(C)c(=O)[nH]1 | -6 | 5 | -0.3% | 0.7 | 2 | -1.4
O=C(CC12CC3CC(CC(C3)C1)C2)Nc1cccc2ncccc12 | -15 | 20 | -2.0%[38.3 µM] | -0.5 | 1 | -0.9
COc1cc(NC(=O)c2cccnc2)c(OC)cc1NC(=O)c1ccc(Br)cc1 | -4 | -2 | 3.1% | 2.2 | 6 | 3.6
CCCCNC(=O)O[C@H]1C[C@@H]2CCN3C(=O)CCC(C)(C)[C@H](C1)[C@H]23 | -4 | 6 | 0.0% | 0.1 | -6 | -5.2
N/C(Cc1ccc([N+](=O)[O-])cc1)=N\OC(=O)c1ccc([N+](=O)[O-])cc1 | 61* | -26 | 2.1% | -1.3 | 21 | 42*
Cc1cccc(NC(=O)CSc2nc3ccccc3nc2N2CCCC2)c1C | -5 | 9 | 1.0% | 0.0 | -8 | -4.1
Cn1c(SCC(=O)Nc2ccccc2F)nnc1-c1cccs1 | -3 | 0 | 0.7% | -0.5 | 8 | 1.5
O=P(c1ccccc1)(c1ccccc1)C(O)c1ccncc1 (configuration not stated) | -8 | 6 | -2.2%[38.3 µM] | -0.3 | -1 | 0.6
COc1ccccc1N1CCN(c2cc(C)nc3nncn23)CC1 | · | · | -0.2% | 0.6 | 31 | ·
CC1CCCN(CC(=O)N2c3ccccc3Sc3ccccc32)C1 (configuration not stated) | -6 | -9 | 2.3% | -0.1 | 8 | -4.9
CCc1cccc(C)c1Nc1c(-c2ccccc2)nc2sccn12 | · | · | 1.5% | 4.0 | 77 | ·
CC(C)Nc1nnc(SCC(=O)Nc2ccc3c(c2)C(=O)c2ccccc2C3=O)s1 | 12 | -74* | -3.7% | 1.1 | -16 | -0.2
COc1cccc(-n2cc(C(=O)NCCCOC(C)C)c3ccccc3c2=O)c1 | -31 | -9 | 4.7% | 0.2 | -11 | -2.0
Nn1c(SCc2c(F)cccc2F)nnc1-c1ccccn1 | -4 | ? | -0.8% | -0.2 | 16 | -2.7
O=C(CC(=O)N/N=C\c1c(Cl)cccc1Cl)NCc1ccccc1 | -21 | 1 | -3.8% | 2.4 | -12 | -1.7
Nc1c(-c2n[nH]c(=S)n2-c2ccc(Cl)cc2Cl)cnn1-c1ccccc1 | 0 | 3 | 14% | 8.6 | -14 | -3.6
COC(=O)c1c(C(=O)OC)c2n(c1C)Cc1ccccc1C2 | 2 | 20 | · | -0.1 | -4 | -2.5
COCCCNC(=O)C[C@@H]1C[C@@]2(C(=O)OC)CCCCC=C2N(Cc2ccco2)C1=O | · | 4 | -1.0% | -0.1 | · | ·
CC(C)CCNC(=O)CCn1nc(-c2ccccc2)ccc1=O | -5 | -3 | 15% | 11 | 23 | -2.0
CC(C)(C)c1ccc(C(=O)NCC(c2ccco2)S(=O)(=O)c2ccc(F)cc2)cc1 (configuration not stated) | · | · | 0.8% | 1.2 | 21 | ·
Nc1cc(N)nc(SCC(=O)Nc2cc(S(=O)(=O)N3CCOCC3)ccc2Cl)n1 | 17 | 11 | 0.5% | 0.0 | 11 | -6.1
COc1ccccc1C(CNC(=O)C(C)Oc1ccc(Br)cc1)N1CCCC1 (configuration not stated) | -6 | -6 | 4.5% | 0.1 | -10 | -0.4
COc1ccccc1/C=C/C=N/n1c(COc2ccccc2)n[nH]c1=S | -13 | -20 | -0.4% | 1.9 | -8 | -2.7
COc1cc2c(C(=O)OCCN(C)C)c(CSc3ccccc3)n(C)c2cc1Br | -9 | -1 | 7.5% | -0.3 | -24 | -4.1
Cc1ccccc1C1C(=O)c2ccccc2C1=O | -4 | -4 | 2.0% | -1.3 | 19 | -1.8
CCOC(=O)C1CCN(C(=O)C2CCN(c3nnc(C)c4c(C)n(-c5ccccc5)nc34)CC2)CC1 | · | · | -0.2% | 0.9 | 17 | ·
CN(C)C(=S)NC(C)(C)C | -2 | 6 | -1.9% | -0.2 | -5 | -8.9
O=C(CCCSc1nc2ccccc2[nH]1)NCc1ccccc1Cl | -17 | 0 | -0.6% | 2.5 | -15 | 0.6
CC(C)CNC(=O)CSc1nnc(-c2ccc(Cl)cc2)n1N | -34 | -3 | 0.3% | 0.7 | -13 | -2.8
CCOC(=O)C1=CC[C@@H](c2cc3cc(OC)ccc3n2C)N(S(=O)(=O)c2ccc(C)cc2)[C@H]1C(=O)OCC | -2 | 10 | 3.1% | 0.2 | 31 | -0.9
CCCc1cc(=O)[nH]c(SCC(=O)N(CC(C)C)C2CCS(=O)(=O)C2)n1 (configuration not stated) | 23 | 6 | -2.6% | 3.0 | 24 | 0.2
Cc1ccc(CN2C(=O)C(=O)c3cc(C)ccc32)cc1 | -80 | -6 | 2.8% | -0.5 | 10 | -7.9
COc1ccc(CN2CC34C=CC(O3)C(C(=O)O)C4C2=O)cc1 (configuration not stated) | -2 | 2 | -0.2% | 0.8 | 15 | 1.4
CCCN1C(=O)CC(c2ccc(OC)c(OC)c2)C1=O (configuration not stated) | 3 | 13 | -0.2% | -0.4 | · | -2.2
COc1ccc(S(=O)(=O)Nc2ccc3c(c2)C(=O)N([C@H](C)CO)C[C@H](C)[C@@H](CN(C)Cc2ccncc2)OCCCC[C@@H](C)O3)cc1 | -7 | 13 | -0.2% | 1.1 | -1 | 1.1
Cc1ccc2c(=O)cc(CSc3nnc(-c4ccccc4)n3C)[nH]c2c1C | · | · | 1.0% | 1.9 | -18 | ·
Cc1ccc(-n2c(CNc3ccc(F)cc3)nnc2SCC(=O)N2CCCC2)cc1 | -20 | -1 | -2.3% | 0.7 | 12 | -2.8
O=C(NCCc1ccc(Cl)cc1)c1ccc(Cn2c(=O)[nH]c3ccccc3c2=O)cc1 | · | · | 3.7% | 0.4 | -15 | ·
O=C(N/N=C/c1ccccc1[N+](=O)[O-])c1ccc2nc[nH]c2c1 | -9 | 12 | -1.0% | -0.2 | 2 | -0.8
CCN(CC)S(=O)(=O)c1ccc(NC(=O)Cn2c(=O)sc3ccccc32)cc1 | -12 | -8 | -1.3% | 0.7 | 49 | -1.0
C#CCn1cc[n+](CC(=O)N(C)C)c1 | -9 | 1 | -0.6% | -0.2 | -9 | -5.1
Fc1ccc(CCNC(=S)Nc2ccc(F)cc2)cc1 | 9 | 1 | 11% | 0.1 | 19 | 1.9
Cn1nc(-c2ccc(N3CCN(CCO)CC3)c([N+](=O)[O-])c2)c2ccccc2c1=O | -8 | 4 | 1.0% | -0.5 | -10 | -0.3
CN(C(=O)COC(=O)c1cc(F)c(F)cc1Cl)c1ccccc1 | -5 | 9 | 0.5% | -0.5 | 11 | 3.4
COc1cc2ccccc2cc1C(=O)Nc1nc(C)c(C(C)=O)s1 | -1 | 2 | 4.9% | -0.3 | -6 | -2.8
Cc1cc(SCC(=O)c2ccccc2)n2ncc(-c3ccccc3)c2n1 | -16 | 1 | 4.5% | -0.8 | 12 | -4.2
CCOC(=O)N1CCN(S(=O)(=O)c2ccc(C(=O)Nc3sc4c(c3C(N)=O)CCN(CC)C4)cc2)CC1 | -9 | 0 | -2.3% | -0.6 | 21 | -4.5
CNc1ccc(/C=C(\CCC(=O)O)c2nc3ccccc3s2)cc1[N+](=O)[O-] | -3 | ? | 0.4% | 1.0 | -3 | -1.2

In the list so far, these contain a Cl atom:
SMILES | D2 PAM | Six1-Eya2 inh | PINK1 modulator | TRPML1 ag | TRPML1 inh | D2 ag
C/C(Cl)=C/Cn1c(NCCN(C)C)nc2c1c(=O)n(C)c(=O)n2C | -11 | -1 | -0.9% | 0.4 | 3 | -4.2
O=C(O)c1cc(N/N=C/c2ccc(-c3ccc(F)cc3)o2)ccc1Cl | 12 | -10 | -0.8% | -0.6 | 42 | 7.5
O=C(CC(=O)N/N=C\c1c(Cl)cccc1Cl)NCc1ccccc1 | -21 | 1 | -3.8% | 2.4 | -12 | -1.7
Nc1c(-c2n[nH]c(=S)n2-c2ccc(Cl)cc2Cl)cnn1-c1ccccc1 | 0 | 3 | 14% | 8.6 | -14 | -3.6
Nc1cc(N)nc(SCC(=O)Nc2cc(S(=O)(=O)N3CCOCC3)ccc2Cl)n1 | 17 | 11 | 0.5% | 0.0 | 11 | -6.1
O=C(CCCSc1nc2ccccc2[nH]1)NCc1ccccc1Cl | -17 | 0 | -0.6% | 2.5 | -15 | 0.6
CC(C)CNC(=O)CSc1nnc(-c2ccc(Cl)cc2)n1N | -34 | -3 | 0.3% | 0.7 | -13 | -2.8
O=C(NCCc1ccc(Cl)cc1)c1ccc(Cn2c(=O)[nH]c3ccccc3c2=O)cc1 | · | · | 3.7% | 0.4 | -15 | ·
CN(C(=O)COC(=O)c1cc(F)c(F)cc1Cl)c1ccccc1 | -5 | 9 | 0.5% | -0.5 | 11 | 3.4
